Bioassay records as filed in PubChem BioAssay.
eIF4H FP inh: inhibitors of RNA binding by human eIF4H | Q15056 | AID 2012 | inhibition, % at 35 µM | eIF4H fluorescence polarization binding assay | 290,000 tested, 0.94% active;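 active means 50% or more with normal probe brightness, or confirmed in later tests; inconclusive means above 50% with abnormal brightness, or retests that disagree; inactive means below 50% or failed in later tests; about a fifth of its hits are not listed in these tables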;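 further: calls also rest on retests at 20 µM and on dose response follow-up; 0% = protein and probe with vehicle and 100% = probe without protein; strong numbers were not always called active; many hits fall short of the cut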
Env fusion inh: blocks HIV Env-driven cell-cell fusion | HeLa-JRFL Env/CEM21 cell fusion, luciferase | inhibition, % at 12.3 µM | 360,000 tested, 1.1% active;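 active means mean replicate inhibition score of at least 50 and every replicate individually at or above 50; inconclusive means only one of the two criteria met; inactive means mean below 50 and not all replicates reaching 50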;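 further: 0% = plate neutral controls and 100% = maraviroc near 300 nM; one replicate is shown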
MT1-MMP act inh: blocks activation of human MT1-MMP. P50281. HT1080 RFP-PRO-GFP cells, GFP/RFP ratio fluorescence, overnight; percent of plate control window, DMSO zero. GFP/RFP ratio change, % at 20 µM. 360,000 tested, 0.061% active. AID 651647;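 active means GFP/RFP ratio change of at least 30% with cell ATP level not reduced by more than half and red fluorescence within 50% of control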; further: strong numbers were not always called active
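Assay system: HT1080 RFP-PRO-GFP cells | Dosing: 20 µM single dose, 1% DMSO | Incubation: Cells overnight before dosing, compound overnight, 37 °C, 5% CO2 | Evaluation: GFP/RFP fluorescence ratio | Control set: DMSO-only wells and HT1080 RFP-L50D-GFP cell wells as references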
CSC inhib: blocks cancer stem cells; AID 2717; inhibition, % at 7.5 µM; cancer stem cell-like cells viability, luminescence; 300,000 tested, 1.1% active;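 active means mean at 75% or more and at least half the replicates too; inconclusive means mean and replicates disagree; tested in HMLE shEcad cells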;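 further: 0% = median of negative and 100% = median of positive control wells; the first replicate is given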
PABP FP inh: PABP-poly(A) binding inhibition | inhibition, % at 35 µM | 290,000 tested, 1% active | P11940 | AID 2014 | PABP-poly(A) RNA binding, fluorescence polarization;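 active means 50% or more with normal probe brightness, or confirmed in later tests; inconclusive means above 50% with abnormal brightness, or retests that disagree; inactive means below 50% or failed in later tests; about a fifth of its hits are not listed in these tables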;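 further: calls also rest on retests at 20 µM and on dose response follow-up; controls were probe without protein and protein plus probe with vehicle; some compounds called inactive have numbers as strong as hits; many hits fall short of the cut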
Target sequence (P11940 whole entry, looked up): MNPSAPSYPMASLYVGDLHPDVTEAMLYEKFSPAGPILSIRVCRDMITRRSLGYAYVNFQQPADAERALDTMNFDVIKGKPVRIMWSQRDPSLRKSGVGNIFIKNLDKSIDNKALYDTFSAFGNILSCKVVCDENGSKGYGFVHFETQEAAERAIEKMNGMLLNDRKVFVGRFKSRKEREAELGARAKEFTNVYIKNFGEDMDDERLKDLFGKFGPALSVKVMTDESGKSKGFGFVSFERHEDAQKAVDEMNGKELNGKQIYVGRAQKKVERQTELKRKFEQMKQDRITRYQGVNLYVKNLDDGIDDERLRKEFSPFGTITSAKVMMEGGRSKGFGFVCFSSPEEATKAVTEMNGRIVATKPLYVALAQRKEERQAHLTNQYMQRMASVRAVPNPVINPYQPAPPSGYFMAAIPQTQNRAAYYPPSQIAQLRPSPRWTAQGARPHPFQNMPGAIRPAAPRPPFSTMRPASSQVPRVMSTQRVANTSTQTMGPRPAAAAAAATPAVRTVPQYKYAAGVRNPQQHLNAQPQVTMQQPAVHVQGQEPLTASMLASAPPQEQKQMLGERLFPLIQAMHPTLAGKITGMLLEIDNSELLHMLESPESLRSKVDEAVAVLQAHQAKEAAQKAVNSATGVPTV
Rce1 inh: blocks yeast Ras-converting enzyme; 290,000 tested, 0.27% active; Q03530; calls only; yeast membranes, quenched prenylated peptide cleavage fluorescence;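 active means fall in fluorescence gain of 50% or more versus controls, with final raw signal at or below 3038400; inconclusive means same 50% fall but final raw signal above 3038400; inactive means fall in fluorescence gain under 50%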;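 further: plate controls were neutral control wells for no effect and wells lacking membranes for full effect; tested at 10 µM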
Target sequence (Q03530 whole entry, looked up): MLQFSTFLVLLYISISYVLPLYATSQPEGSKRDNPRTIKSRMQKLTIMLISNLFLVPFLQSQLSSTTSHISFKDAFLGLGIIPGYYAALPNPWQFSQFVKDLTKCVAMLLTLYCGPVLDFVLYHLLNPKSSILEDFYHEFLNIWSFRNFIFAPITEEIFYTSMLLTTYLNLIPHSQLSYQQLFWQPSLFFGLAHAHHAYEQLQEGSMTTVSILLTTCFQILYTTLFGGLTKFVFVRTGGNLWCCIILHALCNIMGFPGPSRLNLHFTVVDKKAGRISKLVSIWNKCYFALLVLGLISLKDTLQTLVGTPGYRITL
Yeast UUG start: alters start codon recognition fidelity in yeast; 350,000 tested, 0.13% active; S. cerevisiae UUG-firefly luciferase reporter, luminescence/redox ratio; activity score, % at 18.7 µM;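 active means replicate mean at a twofold rise or more, about +100% in these data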;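 further: firefly luciferase made from a UUG start codon reports start codon fidelity; reporter light over untreated wells divided by growth signal over untreated wells; some hits fall short of that in this replicate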
MT1-MMP act inh RFP: second read-out of MT1-MMP act inh, no call of its own (marks repeat the call); RFP signal change, %; measured here: RFP expression control read;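 0 = vehicle wells; hits needed this value within 50% of zero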
Starred values were filed as active, the others as inactive; i = inactive; ? = inconclusive; . = no result given. Not all compounds are listed; rates above refer to the full screens.

Structure | eIF4H FP inh | Env fusion inh | MT1-MMP act inh | MT1-MMP act inh RFP | CSC inhib | PABP FP inh | Rce1 inh | Yeast UUG start
COCCNC(=O)c1cc(C)ccc1C | 6.7 | 1.6 | 2.2 | 2.1 | -18.2 | -6.2 | i | -1.8
O=C(c1csc2c1CCCC2)N1CCN(c2ccc(F)cc2)CC1 | 11.1 | -1.4 | -7.5 | -0.3 | -3.7 | -0.9 | i | -16.1
CCCSc1nnc(NC(=O)Nc2ccccc2OC)s1 | -9.5 | -43.3 | 6.1 | 3.4 | -0.1 | -10.5 | i | .
COc1ccccc1CN1CCNC(=O)C1CC(=O)NCc1cn(C)nc1C (configuration not stated) | 11.6 | 13.6 | -3.7 | 1.3 | -19.4 | 8.1 | i | 7.9
Cc1[nH]c2ccccc2c1N=Nc1cc(C(=O)O)cc(C(=O)O)c1 | 8.7 | 2.6 | 9.4 | 5.9 | -4.2 | 5.9 | i | -11.1
O=C(NNC(=O)c1ccccc1[N+](=O)[O-])c1cccs1 | 2.9 | -6.7 | -0.5 | -2.2 | -17.6 | 1.9 | i | .
COC(=O)c1ccc(NC(=O)COc2ccc(N(C)S(=O)(=O)c3ccc(C)cc3)cc2)cc1 | . | 6.6 | 8.6 | -3.8 | 9.3 | . | . | -22.7
COc1cc(/C=C(\C#N)C(=O)Nc2ccc(SC(F)F)cc2)cc(OC)c1OC | 0.0 | -12.7 | 1.8 | 6.1 | -1.6 | -2.7 | i | -15.7
CCC(C)NC(=O)[C@H](CSCc1ccccc1)N1Cc2ccccc2C1=O (some centres not stated) | -9.9 | -16.2 | -5.1 | -2.8 | -10.3 | -14.1 | i | -0.9
COCCNC(=S)c1ccc(OC)cc1 | 4.4 | . | -1.8 | 0.8 | -18.2 | -0.1 | . | -22.0
COc1ccc(N(CC(=O)NC2CCCC2)C(=O)c2ccc(C)s2)c(OC)c1 | -6.8 | 0.0 | 2.9 | 4.3 | -6.5 | -7.6 | i | -0.5
CCCn1c(N)c(N(CCOC)C(=O)c2ccc(Cl)c([N+](=O)[O-])c2)c(=O)[nH]c1=O | -3.3 | 1.4 | 6.1 | 4.1 | -9.6 | 3.4 | i | -7.1
CN(C)CCCN1C(=O)c2cccc3c([N+](=O)[O-])ccc(c23)C1=O | ? | . | -83.8 | 10.0 | 37.8 | 3.5 | . | .
Clc1ccc(-n2ncc3c(NCCN4CCOCC4)ncnc32)cc1 | -4.7 | . | 6.3 | 1.0 | 11.2 | -4.0 | i | -45.9
Cn1c(CNC(=O)CCNC(=O)c2ccccc2)cc(=O)n(C)c1=O | -18.6 | -0.5 | 1.5 | 5.0 | -6.5 | -10.3 | i | -4.4
CCOc1ccc(NC(=O)[C@H](C)NC(=O)C2CC(=O)N(c3ccc(OC)cc3)C2)cc1 (some centres not stated) | -7.1 | 10.7 | 0.2 | 1.1 | 1.1 | -8.5 | i | -19.4
COc1cc(CN=Cc2c(O)n(Cc3ccccc3)c(=S)[nH]c2=O)cc(OC)c1 | -5.2 | 15.6 | -19.4 | -12.2 | -11.3 | -9.4 | i | .
CCCn1c(N)c(N2CCCCC2)c(=O)n(CC(=O)Nc2ccc(C(C)=O)cc2)c1=O | . | . | -2.7 | -1.2 | -3.0 | . | . | -7.5
COc1ccc(C(=O)COC(=O)c2cc(S(=O)(=O)N3CCCCC3)ccc2N2CCOCC2)c(OC)c1 | . | 3.5 | -4.3 | -6.4 | -7.2 | . | i | 3.7
Cc1ccc(-c2nnc(-c3ccc(NC(=O)c4ccco4)cc3)o2)cc1 | -1.2 | . | -2.1 | 6.3 | -6.9 | -17.2 | i | 3.5
CC(C)(C)C(=O)NC(=C(Cl)Cl)P(=O)(O)O | -9.8 | -49.7 | 7.7 | 1.6 | 1.7 | -2.0 | . | 5.3
COc1ccc(CC(=O)Oc2ccccc2C)cc1 | -3.7 | 2.9 | 0.3 | 3.0 | -8.5 | -6.3 | i | -6.1
COc1cc2c(cc1OC)[C@@H]1Cc3cc4c(cc3[C@H](C2)N1C)OCO4 | 0.1 | 11.2 | -1.6 | 3.0 | -7.0 | 11.4 | i | -18.9
CC(NC(=O)CN(C1CCCCC1)S(C)(=O)=O)c1ccccc1 (configuration not stated) | -1.3 | -44.0 | 8.1 | 3.6 | -0.7 | -1.9 | i | -20.5
Clc1ccc(-c2nnc(COc3ncnc4sccc34)o2)cc1 | 8.5 | 2.8 | 4.4 | 4.1 | 5.6 | 12.1 | i | .
O=C(/C=C/c1cn(CC(O)CN2CCCCCC2)c2ccccc12)c1cccs1 (configuration not stated) | ? | -50.1 | -33.6 | 1.1 | -3.7 | -10.7 | i | .
COC(=O)N1CC(=O)N(OC)C1c1ccc(Cl)cc1Cl (configuration not stated) | -17.0 | 1.1 | 0.2 | 2.8 | -10.2 | -6.0 | i | .
Cc1ccc(NC(=O)CN(Cc2ccccc2)S(C)(=O)=O)cc1C | -1.2 | . | -2.1 | -1.8 | -9.1 | 9.2 | i | 5.2
CCC(C)OC(=O)C1=C(C)NC(=O)NC1c1ccc(F)cc1 (configuration not stated) | 4.8 | . | 1.2 | -4.9 | 0.6 | 0.5 | i | 1.4
c1cc(SSc2ccncc2)ccn1 | 2.0 | -6.3 | 1.6 | 1.9 | 16.4 | 6.1 | i | .
Cc1ccc(CSCC(=O)NCc2ccc3c(c2)OCO3)cc1 | -12.1 | 5.4 | 1.4 | -1.9 | 2.1 | -2.6 | i | .
Cc1ccc(SC(C)C(=O)N2CCN(c3ccccc3)CC2)cc1 (configuration not stated) | -3.7 | 7.3 | -2.4 | -3.3 | -4.3 | -3.9 | i | 3.1
CC1CCc2c(sc3nc(CSc4n[nH]c(N)n4)[nH]c(=O)c23)C1 (configuration not stated) | 4.2 | -6.9 | 3.9 | -1.5 | -2.2 | 12.9 | i | .
O=C(Nc1nnc(-c2ccccc2)o1)c1ccc(Cl)cc1 | 4.9 | . | 5.1 | 1.7 | -10.7 | 5.3 | i | -15.2
CC(=O)Nc1ccc(S(=O)(=O)Nc2ccc3c(c2)OCO3)cc1 | 4.2 | -3.6 | 0.7 | -4.8 | -0.2 | 0.5 | i | -11.4
O=S(=O)(NN1CCOCC1)c1cc(Cl)cc(Cl)c1O | 4.9 | . | 4.1 | 5.0 | -24.7 | -5.2 | i | -2.7
CCCn1c2ccc(F)cc2c2nnc(NN)nc21 | -29.8 | -13.4 | 9.4 | 7.0 | 2.0 | -1.5 | i | .
CC1CCc2[nH]c3ccc(C(=O)N4CCCC(C(F)(F)F)C4)cc3c2C1 (configuration not stated) | . | -37.1 | 0.5 | -3.3 | 18.4 | . | i | -7.2
CCSc1nc2nccnc2c(=O)[nH]1 | . | -15.3 | -1.4 | 1.9 | . | . | . | -13.7
Cc1cccc(N2CCN(S(=O)(=O)c3ccc(-c4coc(C)n4)cc3)CC2C)c1 (configuration not stated) | -9.3 | -4.1 | -1.8 | 0.4 | -2.0 | 1.6 | i | -5.7
CCOCCCNC(=S)NCCCNc1nc2c(C)cc(C)cc2cc1C#N | 0.2 | 4.3 | -5.5 | 1.3 | . | 9.0 | . | .
OC(c1ccccc1)(c1nc(-c2csc3ccccc23)cs1)C(F)(F)F (configuration not stated) | . | 38.0 | 1.3 | -2.6 | . | . | . | -19.9
CC1=NN(C(=S)Nc2ccccc2)C(c2ccccc2)C1 (configuration not stated) | -6.2 | -9.4 | 3.8 | 7.2 | -1.1 | 7.9 | i | .
Cn1nc(C(=O)OCC(=O)N(Cc2ccccc2)C(C)(C)C)c2ccccc2c1=O | . | 3.1 | -1.5 | -1.7 | . | . | . | 4.5
CCCCn1c(SCC(=O)Nc2nc(C)cs2)nnc1-c1cccnc1 | -1.3 | . | 0.6 | 0.0 | . | 0.1 | i | 5.2
O=c1ccc(S(=O)(=O)N2CCCC2)cn1Cc1ccc(F)cc1 | . | 5.3 | 2.4 | -3.5 | 3.9 | . | . | -20.7
COc1ccc(C2CC(c3cccs3)=NN2C(=O)CSc2nncs2)cc1OC (configuration not stated) | -3.9 | 9.8 | -1.6 | -3.5 | . | -3.2 | i | .
Cc1ccc2cc(CCNC(=O)C(=O)c3c(C)[nH]c4ccccc34)c(=O)[nH]c2c1 | 2.5 | -18.2 | -3.0 | -3.3 | -6.3 | -7.0 | . | .
Cc1ccc(C(=O)C(OC(=O)COc2ccccc2C)c2ccccc2)cc1 (configuration not stated) | 0.3 | -3.6 | 4.6 | 5.6 | -4.1 | -6.4 | i | -20.1
CC(Sc1nnc(-c2cc3ccccc3o2)n1-c1ccccc1)C(=O)O (configuration not stated) | -3.4 | . | 0.2 | 8.8 | -13.0 | -4.9 | i | -17.4

More records
Structure | eIF4H FP inh | Env fusion inh | MT1-MMP act inh | MT1-MMP act inh RFP | CSC inhib | PABP FP inh | Rce1 inh | Yeast UUG start
N/C(=N\OC(=O)CCc1ccccc1)c1cccnc1 | -2.5 | -2.9 | -0.5 | -1.4 | 2.3 | -5.3 | i | .
Cc1oc(C)c(C(=O)Nc2ccc(CC(=O)O)cc2)c1C(=O)Nc1ccc(CC(=O)O)cc1 | -10.4 | -16.0 | 5.9 | 9.2 | -2.5 | 4.8 | i | -5.9
O=C(c1cccc(Br)c1)N1CCN(c2cnn(-c3ccccc3)c(=O)c2Cl)CC1 | -4.8 | 8.6 | -0.9 | -6.0 | -3.5 | -2.9 | i | .
COc1ccc(C2/C(=C(/O)c3ccccc3)C(=O)C(=O)N2CCN2CCOCC2)c(OC)c1 (configuration not stated) | -6.9 | . | -6.2 | 1.0 | -9.1 | -8.8 | i | 2.6
COc1cccc(C2CCCN2Cc2nc(-c3cnccn3)no2)c1 (configuration not stated) | -14.9 | -10.5 | -1.8 | 2.0 | -7.6 | 2.5 | i | -13.6
Cc1ccc(NC(=O)CCc2c(C)nn(-c3ccc(N4CCOCC4)nn3)c2C)cc1F | -10.3 | -6.5 | 0.1 | 1.1 | 6.8 | -2.0 | i | 29.4
CCN(CCCCCN(C)C)Cc1cc2ccccc2o1 | 7.6 | 2.5 | 3.8 | 3.2 | . | -6.5 | i | -22.9
Fc1cccc(Cl)c1Cn1nnc(-c2ccc3c(c2)OCO3)n1 | 2.1 | . | 3.6 | -0.1 | -8.1 | -3.7 | i | 33.3
CCN1CCCC1CNC(=O)c1cc2c(-c3ccc(Cl)cc3)nn(C)c2s1 (configuration not stated) | -8.4 | . | 2.7 | 4.1 | 59.6 | -2.6 | i | -9.0
CC(C)OC(=O)NC(Nc1ccccc1C(=O)O)(C(F)(F)F)C(F)(F)F | 0.2 | 16.4 | -7.3 | -1.3 | 21.8 | 1.4 | i | .
Cc1n(C)c2cc(Cl)ccc2[n+]1Cc1ccccc1 | 28.8 | 20.0 | -0.3 | 3.1 | 1.6 | 4.9 | i | .
O=C(Oc1ccc(-c2nnco2)cc1)c1ccc(Br)o1 | -17.8 | 5.3 | 0.0 | 1.3 | . | -7.6 | i | -15.5
